Compound activity as filed in PubChem BioAssay.
GIRK2 activ – opens human GIRK2 potassium channels. P48051. hit rate 0.05% among 63,000. HEK293-GIRK2 thallium flux, Thallos fluorescence. calls only for hits at 25 µM. AID 1259325;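 active = among the strongest 0.2% of first-round signals and kept after retests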;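 note: first round at about 10 µM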
Target sequence (P48051 whole entry, looked up): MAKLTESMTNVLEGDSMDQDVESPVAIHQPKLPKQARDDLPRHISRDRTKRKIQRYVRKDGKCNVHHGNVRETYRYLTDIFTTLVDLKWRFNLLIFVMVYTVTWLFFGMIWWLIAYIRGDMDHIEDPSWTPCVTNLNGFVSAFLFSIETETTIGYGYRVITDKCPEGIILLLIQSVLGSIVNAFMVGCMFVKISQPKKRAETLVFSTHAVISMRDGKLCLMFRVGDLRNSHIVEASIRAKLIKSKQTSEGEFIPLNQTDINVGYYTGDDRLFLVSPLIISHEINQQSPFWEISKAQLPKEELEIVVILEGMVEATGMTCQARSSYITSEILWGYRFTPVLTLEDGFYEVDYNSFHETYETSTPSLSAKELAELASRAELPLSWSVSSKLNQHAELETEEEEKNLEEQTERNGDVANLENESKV
Calls only; i = inactive. Not all compounds are listed; count on the stated rates, not on these rows.

structure	GIRK2 activ
COc1ccc(NC(=O)C2Nc3cc(C)ccc3S(=O)(=O)N2)cc1Cl (centres undefined)	i
O=C(NCC1(O)CCc2ccccc2C1)c1ccc(Cl)s1 (centres undefined)	i
O=C(Nc1cn[nH]c1-c1nc2ccc(CN3CCOCC3)cc2[nH]1)NC1CC1	i
CN1CCN(c2ccc(-c3ccc(NC(=O)c4ccc(C(F)(F)F)cc4)cc3)nn2)CC1	i
CCc1ccc(CNC(=O)CCc2nnc3c(N4CCCCC4)nc4ccccc4n23)cc1	i
CN(C)CCCN1C(=O)C(=O)C(=C(O)c2ccc3c(c2)OCCO3)C1c1ccco1 (centres undefined)	i
C=C1CCC(OC(C)=O)C2(C)CC3(O)OC(=O)C(C)=C3CC12 (centres undefined)	i
CCOC(CNC(=O)C(=O)Nc1ccc(N2CCCS2(=O)=O)cc1)OCC	i
COCc1c(-c2nnc(-c3cccnc3)o2)nnn1-c1ccc(Br)cc1	i
NC(=O)Cc1[nH]nc2ccc(F)cc12	i
O=C(CCCn1nc(-c2cccs2)ccc1=O)N1CCc2ccccc21	i
O=C(Nc1cccs1)N1CCCC(c2nnc(-c3cccs3)o2)C1 (centres undefined)	i
O=C(Nn1c(SCc2cccc([N+](=O)[O-])c2)nc2ccccc2c1=O)c1ccccc1	i
CCC(C)NC(=O)CN1CCN(c2ccccc2F)C1=O (centres undefined)	i
O=C(Nc1ccc(Cl)c(Cl)c1)N(Cc1ccsc1)Cc1ccco1	i
O=C(COc1ccccc1F)N(CCc1cccs1)Cc1ccoc1	i
CC1(C)OCC2(CO1)CN(C(=O)CSc1nc3ccccc3s1)C2	i
Cc1nnc(C2CCN(C(=O)c3ccc(=O)n(C)n3)CC2)s1	i
CC(Cc1ccco1)NC(=O)CCCc1ccccc1 (centres undefined)	i
O=C(Cn1nc(C2CC2)cc1C(=O)N1CCCC1)Nc1ccc(F)cc1Cl	i
O=C1CC(c2noc(-c3ccccc3)n2)CN1Cc1ccccc1 (centres undefined)	i
CC(C)(C)C(=O)N1CCCC(c2nnc(-c3ccc4c(c3)OCO4)o2)C1 (centres undefined)	i
Cc1cc(NC(=O)CSc2nnc(C)c3cnn(-c4ccccc4)c23)no1	i
Cc1cc(C)nc(NC(=O)c2ccc(C)c(S(=O)(=O)N3CCOCC3)c2)n1	i
CC(C)(C)OC(=O)N1CCN(CCNC(=O)CCn2ccc(=O)[nH]c2=O)CC1	i

Compounds above containing a tert-butyl group, in the order listed:
structure	GIRK2 activ
CC(C)(C)C(=O)N1CCCC(c2nnc(-c3ccc4c(c3)OCO4)o2)C1 (centres undefined)	i
CC(C)(C)OC(=O)N1CCN(CCNC(=O)CCn2ccc(=O)[nH]c2=O)CC1	i

Among those listed so far, 3 contain an aryl thioether with sulfur outside any ring.
structure	GIRK2 activ
O=C(Nn1c(SCc2cccc([N+](=O)[O-])c2)nc2ccccc2c1=O)c1ccccc1	i
CC1(C)OCC2(CO1)CN(C(=O)CSc1nc3ccccc3s1)C2	i
Cc1cc(NC(=O)CSc2nnc(C)c3cnn(-c4ccccc4)c23)no1	i

Next part.
structure	GIRK2 activ
C=CCn1c(SCC(=O)c2ccccc2)nc2scc(-c3ccco3)c2c1=O	i
O=C(Nc1ccccc1C(F)(F)F)N1CCCSCC1CN1CCCC1 (centres undefined)	i
O=C(NCCC(O)C1CC1)C1(c2ccc(Cl)cc2)CCCC1 (centres undefined)	i
O=C(NCc1cnn2ccccc12)c1c[nH]c2ccccc12	i
Cc1nc(-c2ccc(S(=O)(=O)N3CCN(c4ccccc4)CC3)s2)cs1	i
COc1ncc(NS(=O)(=O)c2cccc(C(F)(F)F)c2)cn1	i
Cc1cc(OCC(=O)O)c(C(C)C)cc1Br	i
O=S(=O)(Cc1ccc(Cl)cc1)c1ccc(NCc2ccc3c(c2)OCO3)nn1	i
CCCCC[C@H](O)/C=C/[C@H]1OC(O)C[C@H](O)[C@@H]1CCCCCCC(=O)O (some centres undefined)	i
Cn1c(=O)c(C(=O)/C=C/c2ccc3nccnc3c2)c(-c2ccccc2)c2ccccc21	i
Cc1cc(C)n(CC(=O)NC2CCCCC2)c(=O)c1-c1nc(-c2ccccc2)no1	i
COc1ccc(-c2csc3c(=O)n(CC(=O)Nc4ccc(C)c(Cl)c4)cnc23)cc1	i
C=C1CC[C@@]2(OC1)O[C@H]1CC3[C@@H]4CC=C5C[C@H](O[C@H]6OC[C@@H](O)C(O)[C@@H]6O[C@@H]6O[C@@H](C)[C@H](O)[C@@H](O[C@@H]7O[C@H](CO)[C@@H](O)[C@H](O)[C@H]7O)[C@H]6O)C[C@@H](O)[C@]5(C)C4CC[C@]3(C)[C@H]1[C@@H]2C (some centres undefined)	i
Cc1ccc(C)c(S(=O)(=O)NCC2(O)CCOc3ccccc32)c1 (centres undefined)	i
CCOCCn1c(=O)c2c(nc3n(-c4ccc(C(F)(F)F)cc4)c(-c4ccccc4)cn23)n(C)c1=O	i
CCCCCOC(=O)C1=C(C)NC2=C(C(=O)CC(C)(C)C2)C1c1ccccc1[N+](=O)[O-] (centres undefined)	i
O=C(c1cc2ccccc2oc1=O)N(CCc1cccs1)C1CC1	i
COC(=O)c1ccc(NC(=O)C(=O)NC2CC2)cc1	i
CCCCC[C@@H](O)/C=C/[C@@H]1[C@H](O)CC(=O)[C@H]1C/C=C\CCCC(=O)O	i
CC(Oc1ccccc1)C(=O)Nc1nc(C2CCCCC2)cs1 (centres undefined)	i
O=C(NCc1cccs1)Nc1ccc2c(c1)CCCN2C(=O)c1ccccc1	i
COc1ccc(OCC(O)Cn2c(N3CCC(C)CC3)nc3c2c(=O)n(C)c(=O)n3C)cc1 (centres undefined)	i
CCOc1ccc(-c2ccc(=O)n(CCNS(=O)(=O)c3cccc(F)c3)n2)cc1	i
O=C(Nc1cccc(-c2nc3ccccc3[nH]2)c1)Nc1c(F)cccc1F	i
CC1CC2=C(CC3C(C)(CCC4(O)C(C)(C)C5OC5C(=O)C34C)O2)C(=O)O1 (centres undefined)	i

3 neighbouring compounds out of the list so far, quoted:
structure	GIRK2 activ
CCCCC[C@@H](O)/C=C/[C@@H]1[C@H](O)CC(=O)[C@H]1C/C=C\CCCC(=O)O	i
CC(Oc1ccccc1)C(=O)Nc1nc(C2CCCCC2)cs1 (centres undefined)	i
O=C(NCc1cccs1)Nc1ccc2c(c1)CCCN2C(=O)c1ccccc1	i

(list continues)
structure	GIRK2 activ
CC(C)OC(=O)COc1ccc2c(c1)O/C(=C\c1ccc([N+](=O)[O-])cc1)C2=O	i
COc1ccc(N2CC(C)Cn3c2nc2c3c(=O)n(CCN3CCCCC3)c(=O)n2C)cc1 (centres undefined)	i
O=C(NCC1CCN(S(=O)(=O)c2cccnc2)CC1)Nc1ccc(C(F)(F)F)cc1	i
COc1ccc(Oc2coc3cc(OC(=O)C4CCCCC4)ccc3c2=O)cc1	i
COc1cccc(NC(=O)Nc2nnc(-c3ccc(F)cc3F)o2)c1	i
CNC(=O)Cc1csc(NC(=O)Cc2cc(=O)[nH]c(SCc3ccccc3F)n2)n1	i
O=C(Nn1cnc2c(cnn2-c2ccccc2)c1=O)c1cc2ccccc2oc1=O	i
CCCCS(=O)(=O)NCC#CCOc1ccccc1OC	i
O=C(Nc1nc(-c2ccco2)cs1)c1coc(NC(=O)C2CC2)n1	i
O=C(Cn1nnn(-c2ccc(NC(=O)c3cccs3)cc2)c1=O)NCc1ccco1	i
O=C(Nc1nc(C(=O)N2CCc3ccccc3C2)co1)C1CC1	i
O=C(CN1C(=O)CCC1=O)NCC1CCN(C(=O)c2ccncc2)CC1	i
O=C1c2cccc3c2[C@H](CCC3)CN1[C@@H]1CN2CCC1CC2	i
COc1cccc(NC(=O)Nc2ccccc2NC(=O)c2ccccc2Cl)c1	i
Cn1c(-c2nc(C(=O)Nc3nc(-c4cccnc4)cs3)cs2)cc2ccccc21	i
COc1ccc(NC(=O)N2CCCSCC2CN2CCCC2)cc1 (centres undefined)	i
CCCS(=O)(=O)N1CCCc2cc(NC(=O)c3cc(C4CC4)on3)ccc21	i
CCCCN(C1CCS(=O)(=O)C1)S(=O)(=O)c1ccc(Br)cc1 (centres undefined)	i
Cc1ccc(C)c2sc(N(C)CC(=O)Nc3cccc(NS(C)(=O)=O)c3)nc12	i
CCOc1ccc(NC(=O)c2cn(Cc3ccc(NC(=O)c4ccccc4F)cc3)cn2)cc1	i
COc1ccc(-c2cc3c4nn(CC(=O)Nc5cc(OC)ccc5OC)c(=O)n4ccn3n2)cc1	i
CCS(=O)(=O)N1CCN=C1SCc1ccc(Br)cc1	i
Cc1nn(-c2ccccc2)c2ncc(C(=O)N3CCC(C(N)=O)CC3)c(Cl)c12	i
COc1ccc(C2(CNC(=O)c3c(-c4ccccc4Cl)noc3C)CCOCC2)cc1	i
Fc1ccccc1N1CCN(c2ncnc3[nH]ncc23)CC1	i
O=C(NC12CC3CC(CC(C3)C1)C2)c1coc(NC(=O)C2CC2)n1	i
CC(C)(C)C(=O)N1Cc2cncnc2C1	i
CC(C)C(=O)Nc1sc2c(c1-c1nc3ccccc3s1)CCCC2	i
Cc1cc(OCCCn2c(C3CC(=O)N(C(C)(C)C)C3)nc3ccccc32)ccc1Cl (centres undefined)	i
Cc1n[nH]c(C)c1S(=O)(=O)NCCC1CCCCN1S(=O)(=O)c1cccs1 (centres undefined)	i
COc1ccccc1NC(=O)N1CCC(c2nnc(-c3ccccc3OC)s2)CC1	i
COC(=O)c1ccc(C(=O)OC)c(NS(=O)(=O)CCOc2ccccc2)c1	i
COC(=O)Cn1c(=O)c2c(nc3n2CCCN3c2ccc(OC)cc2)n(C)c1=O	i
CC1CCN(c2nc3nc(SCC(=O)Nc4ccccc4)n(C(C)C)c(=O)c3s2)CC1	i
N#Cc1ccc(Cl)cc1NC(=O)C(=O)NCCc1c[nH]c2ccccc12	i
Cc1ccc(Oc2cccc(C(=O)NCCNc3cc(-n4cccc4)nc(C)n3)c2)nn1	i
COc1ccc(OC)c(NC(=O)Cn2ccn3nc(-c4ccc(Cl)cc4)cc3c2=O)c1	i
CCN(CC)C(=O)c1cnc2ccc(F)cc2c1S(=O)(=O)c1ccc(CC(C)C)cc1	i
Cc1ccc(NC(=O)CN2CCC(C(=O)Nc3ccc(-n4cnnn4)cc3)CC2)c(C)c1	i
COc1cccc2cc(C(=O)NCCn3nc(-n4ccnc4C)ccc3=O)oc12	i
O=C(c1ccc2nsnc2c1)N1CCN(CCn2cccn2)CC1	i
COc1ccc(NC(=O)c2ccc(C)cc2)cc1OC	i
Cc1cc2nn(CC(=O)Nc3ccc(Br)cc3F)c(=O)n2c(-c2ccc(F)cc2)n1	i
O=S(=O)(c1ccc(Cl)cc1)N1CCCC(c2nnc(COc3ccccc3)o2)C1 (centres undefined)	i
CCOc1cc(NS(=O)(=O)c2cc(Br)ccc2OC)ncn1	i
CCCN(Cc1ccsc1)C(=O)NCc1ccc(F)cc1	i
Cc1ccc(N2CCn3c2nc2c3c(=O)n(CCN3CCOCC3)c(=O)n2C)cc1Cl	i
O=C(c1ccc(Oc2ccccc2)cc1)N1CC(c2nc3ccccc3[nH]2)C1	i
Cc1ccc(-c2noc(C3COc4ccccc4O3)n2)cc1 (centres undefined)	i
O=C(c1cc(Cl)ccc1Cl)N1CCN(c2ccc3nnc(-c4ccco4)n3n2)CC1	i

(listing goes on)
structure	GIRK2 activ
COc1ccc(NC(=O)Cn2ncn3nc(-c4ccc(Cl)cc4)cc3c2=O)cc1OC	i
Cc1cc(C)cc(NC(=O)CSc2ncc(S(=O)(=O)c3cccs3)c(N)n2)c1	i
O=C(NCCc1ccoc1)c1cccs1	i
c1ccc(CCn2c(-c3ccco3)nc3nc4ccccc4nc32)cc1	i
N#Cc1ccccc1NC(=O)C(=O)NCc1ccc(C(O)c2cccs2)s1 (centres undefined)	i
Cc1nccn1-c1ccc(=O)n(CCNC(=O)c2c(F)cccc2Cl)n1	i
O=C(CCc1csc(NC(=O)NC2CCCCC2)n1)Nc1cccc(F)c1	i
COc1cc(CN2CC(c3nc(-c4cccc(Cl)c4)no3)C2)cc(OC)c1	i
Cc1ccc(CNC(=O)CSc2ncccc2-c2nc(-c3ccc(C)cc3)no2)cc1	i
COC(=O)c1cn(Cc2ccc(Cl)cc2)nc1S(=O)(=O)N(C)c1ccccc1	i
Fc1ccc(-c2nnc(C3CCN(Cc4csc(-c5ccccc5)n4)CC3)o2)cc1	i
Cn1nnnc1SCC(=O)NCCOc1ccc(-c2ccccn2)nn1	i
O=C(Cn1c(=O)oc2ccccc21)N1CCC2(CC1)OCCS2	i
CS(=O)(=O)c1ccc(Nc2nc(C(=O)NCCC3=CCCCC3)cs2)cc1	i
COc1ccc2nc(-n3nc(C)cc3NC(=O)c3ccc([N+](=O)[O-])s3)sc2c1	i
CCOC(=O)Cn1c(=O)c2c(nc3n2CCN3c2ccc(C)cc2C)n(C)c1=O	i
COc1cccc(COc2coc(C(=O)N3CCN(c4ccccc4)CC3)cc2=O)c1	i
COc1ccccc1-n1ncc2c(C)nnc(SCC(=O)N3CCCCC3)c21	i
O=C(c1ccc2c(c1)CCCC2)N1CCC(Oc2nc3ccccc3s2)CC1	i
CC(C)(C)NC(=O)N1CCC(CNC(=O)C2CC=CCC2)CC1 (centres undefined)	i
COc1nn(C)cc1C(=O)Nc1ccc2c(c1)CCCN2C(=O)c1cccs1	i
Cc1ccc(-c2cc3c(=O)n(CC(=O)Nc4ccc(Br)cc4)ccn3n2)cc1	i
O=C(c1cccs1)N1CCN(C(=O)C2CC2c2ccc3c(c2)OCO3)CC1 (centres undefined)	i
CS(=O)(=O)c1ccc2nc(N3CCN(C(=O)Cc4ccccc4)CC3)sc2c1	i
